# Assay outcomes (PubChem)
# p53null 32C tox: selectivity test: cytotoxicity in p53 null cells, permissive temperature; H1299-neo p53 null cells, ATP luminescence, 24 h, 32C; Potency, µM (doses to about 46.1 µM), for the others: at the top dose activity change, negative = cytotoxicity, usual class: cytotoxic; 55,000 compounds, 0.62% hits; AID 903;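 note: potency is the fitted concentration of half-maximal effect; 0% = DMSO only and -100% = full killing by 100 µM tamoxifen; nearly all actives have a fitted effect of over 55% in size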
#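 Cells lacking p53 (H1299-neo) are plated at 600 per well and allowed to settle overnight at 37C. Test compounds (up to 46 uM) are added and held 24 hours at 32C, then ATP is quantified by luminescence.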
# p53null 39C kill: selectivity test: cytotoxicity in p53 null cells, nonpermissive temperature; Potency, µM (doses to about 46.1 µM), without a hit: at the highest dose activity, negative = cell killing, most hits filed as cytotoxic; 55,000 compounds, 0.97% hits; AID 904; H1299 p53-null (neo) cells, 39C, ATPlite viability, 24 h;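 note: potency is the fitted concentration of half-maximal effect; 0% = DMSO only and -100% = full killing by 100 µM tamoxifen; nearly all actives have a fitted effect of over 50% in size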
#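 H1299 lung cancer cells, p53-null (H1299-neo) or expressing p53 A138V (H1299-p53A138V), were plated overnight at 37C, then exposed to compounds at up to 46 uM for 24 hr at 39C. Viability was read by ATP-based luminescence.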
# FH mod: Identification of activators of human fumarate hydratase by quantitative high-throughput screening. Potency, µM (series often up to 79.9 µM), without a hit: top-dose activity change, negative = inhibition, most hits filed as inhibitors. Fumarate hydratase, mitochondrial (Homo sapiens), P07954. FH coupled MDH/diaphorase resazurin fluorescence, 15 min. 54,000 compounds, 0.22% hits. AID 1347055, 2019; note: potency is the fitted concentration of half-maximal effect; % is set by controls: 0 for no effect and ±100 for the full control effect; the screen sought activators but most active calls are inhibition curves; nearly all actives have a fitted effect of over 45% in size
# GALK inh: inhibits human galactokinase; P51570; recombinant GALK, Kinase-Glo ATP luminescence, 1 h; Potency, µM (titrated, usually from 57.5 µM), inactives show at the top dose activity, negative = inhibition, usual class: inhibitors; 44,000 tested, under 10 active; AID 1347072;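 note: plate controls were full GALK reaction for no effect and reaction lacking GALK for full effect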
# Target sequence (P51570 whole entry, looked up): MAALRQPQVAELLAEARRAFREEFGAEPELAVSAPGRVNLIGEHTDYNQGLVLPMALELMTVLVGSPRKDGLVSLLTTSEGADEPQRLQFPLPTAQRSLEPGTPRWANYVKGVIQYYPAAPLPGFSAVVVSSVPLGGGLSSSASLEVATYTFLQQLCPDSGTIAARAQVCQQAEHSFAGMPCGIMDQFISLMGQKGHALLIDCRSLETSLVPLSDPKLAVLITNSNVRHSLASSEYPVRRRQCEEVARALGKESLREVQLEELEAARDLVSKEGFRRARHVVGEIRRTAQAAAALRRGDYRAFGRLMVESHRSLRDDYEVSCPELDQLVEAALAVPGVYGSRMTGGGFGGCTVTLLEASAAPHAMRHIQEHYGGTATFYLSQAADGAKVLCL
#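 5 nM GALK with 35 µM ATP and 100 µM galactose in HEPES pH 8.0, MgCl2, NaCl, DTT, BSA; 1 h RT reaction, remaining ATP detected by Kinase-Glo Plus luminescence after 10 min; qHTS concentration series.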
# PTAP-TSG101 blk: inhibitors of HIV-1 PTAP binding to human TSG101, validation; Q99816; Fluorescence polarization, FITC-PTAP peptide/Tsg101, 20 min; Potency, µM (titrated, usually from 115 µM), for the others: at the highest dose activity change, negative = inhibition, most hits filed as inhibitors; 44,000 tested, under 10 active; AID 1347069; note: potency is the fitted concentration of half-maximal effect; 0% is about no effect
#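 Compounds pinned into 10 uM Tsg101 binding domain, then 50 nM FITC-PTAP peptide added in pH 7.5 HEPES buffer; FP read after 20 min, room temperature. Total S+P intensity flags fluorescent compounds; active cut-off <25 µM, efficacy <60%.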
# B2AR arrestin ag: agonists recruiting beta-arrestin to human beta2-adrenergic receptor; P07550; HTLA Tango cells, beta-arrestin recruitment, luciferase luminescence, 18 h; AID 1347077; Potency, µM (titrated, usually from 46.1 µM), for inactives: top-dose activation, actives largely listed as activators; 44,000 tested, under 10 active;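 note: potency is the fitted concentration of half-maximal effect; 0% = DMSO and full agonism = EC100 isoproterenol or metaproterenol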
# Target sequence (P07550 whole entry, looked up): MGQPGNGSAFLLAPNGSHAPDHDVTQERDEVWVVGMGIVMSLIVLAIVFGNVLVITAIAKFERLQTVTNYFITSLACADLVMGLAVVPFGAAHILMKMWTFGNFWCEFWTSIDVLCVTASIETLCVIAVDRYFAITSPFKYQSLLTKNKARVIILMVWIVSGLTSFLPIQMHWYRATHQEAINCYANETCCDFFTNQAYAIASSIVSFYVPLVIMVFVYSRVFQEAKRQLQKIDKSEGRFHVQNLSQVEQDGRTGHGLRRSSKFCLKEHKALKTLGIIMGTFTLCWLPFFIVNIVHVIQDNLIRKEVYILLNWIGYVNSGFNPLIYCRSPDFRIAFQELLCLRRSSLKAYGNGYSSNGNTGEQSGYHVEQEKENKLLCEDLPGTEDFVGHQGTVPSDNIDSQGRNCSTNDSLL
#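 First, Tango cells carrying beta2-AR and beta-arrestin fusions received compound up to 46 microM. After 18 hr at 37 degrees C, luciferase substrate was added for 15 minutes, then luminescence gave %Activity for curve fitting.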
# Active calls of the source: *; u = inconclusive; x = not tested or not shown; & = joins results of further samples; [ ] = dose if it differs, or a comment. Calls come from the whole dose curve; as a rule, active = well fitted curve in the direction sought with a large enough effect; inconclusive = small, poorly fitted or top-dose-only effect, or another doubt; inactive = no such curve, though single readings can be large; an effect the other way counts as inactive or inconclusive.
# Values in the order: p53null 32C tox | p53null 39C kill | FH mod | GALK inh | PTAP-TSG101 blk | B2AR arrestin ag
1: CCc1ccc(C(=O)c2cn(CC(=O)Nc3ccc(F)cc3)c3ccc(OC)cc3c2=O)cc1
    0% | 5% | -7% | 2% | 3% | 1%
2: CCc1ccc(NC(=O)c2cnc3c(-c4ccccc4)c(C)nn3c2C)cc1
    9% | -1% | -26% | 1% | -2% | 1%
3: Cc1cc(C)c2c(=O)cc(C(=O)Nc3ccc(S(=O)(=O)N(C)Cc4ccccc4)cc3)oc2c1
    -1% | -15% | -4% | -13% | 1% | 0%
4: COc1ccc(C2=NC3(CCCCC3)N(CC(=O)Nc3ccc(C(C)C)cc3)C2=O)cc1
    10% | -7% | -22% | 7% | -11% | -3%
5: N#C/C(=C/c1ccc(Cl)cc1)c1nc(-c2ccc(Br)cc2)cs1
    -3% | 1% | 5% | -21% | 12% | 0%
6: N#Cc1ccc(CSc2nnc(-c3ccc(Br)cc3)o2)cc1
    7% | -18% | -4% | 5% | -2% | 0%
7: Cc1ccc2occ(CC(=O)Nc3ccc(S(=O)(=O)N4CCCC(C)C4)cc3)c2c1 (stereo not drawn)
    24% | 18% | u | 1% | -1% | 0%
8: CCCC(=O)N1c2ccccc2-c2nnc(SC)nc2OC1c1sccc1C (stereo not drawn)
    37%[activator] | 23% | u | u | -1% | 0%
9: Cc1c(CNC(C)CCc2ccccc2)c(C(=O)O)c(C)n1Cc1ccc(F)cc1 (stereo not drawn)
    4% | -14% | 5% | 6% | -8% | -2%
10: Cc1ccccc1NC(=O)CN1C(=O)C(C)(C)c2ccccc21
    -3% | 24% | 2% | -2% | -14% | 0%

# Limited to GALK inh, FH mod and p53null 32C tox, for 2 of the compounds above:
No.	structure	GALK inh	FH mod	p53null 32C tox
5	N#C/C(=C/c1ccc(Cl)cc1)c1nc(-c2ccc(Br)cc2)cs1	-21%	5%	-3%
6	N#Cc1ccc(CSc2nnc(-c3ccc(Br)cc3)o2)cc1	5%	-4%	7%

# Following part
# Values in the order: p53null 32C tox | p53null 39C kill | FH mod | GALK inh | PTAP-TSG101 blk | B2AR arrestin ag
11: CCOC(=O)c1nnn(CC(=O)NC(=O)Nc2ccc(F)cc2)c1C(=O)OCC
    12% | -6% | -19% | 4% | -6% | 1%
12: CCC(Sc1nc2cc(OC)c(OC)cc2c(=O)n1Cc1ccc(Cl)cc1)C(=O)NCCOC (stereo not drawn)
    0% | 1% | -4% | -6% | 0% | -2%
13: COc1cccc(C2C(C(=O)Nc3ccccc3)=C(C)Nc3nc(-c4ccccc4)nn32)c1 (stereo not drawn)
    9% | -26% | 2% | 1% | -3% | 0%
14: CCOc1ccc(-c2c(C)nn3c(C)c(C(=O)NCc4ccc(Cl)cc4)cnc23)cc1OCC
    0% | 0% | 1% | 2% | 2% | 0%
15: CS(=O)(=O)OCCCCOS(C)(=O)=O
    x | x | -5%&7%[53.3 µM] | x | x | x
16: CC1(C)CC=C(C#Cc2ccccc2)c2cc(/C=C/c3ccc(C(=O)O)cc3)ccc21
    x | x | -7% | x | x | x
17: CC1=C(C(=O)Nc2cc3cn[nH]c3cc2F)C(c2ccc(Cl)cc2F)N=C(c2ccnc(Cl)c2)N1 (stereo not drawn)
    x | x | -22% | x | x | x
18: CCOc1ccccc1C(=O)NC1(C(F)(F)F)C(=O)Nc2c1c(=O)[nH]c(=O)n2-c1ccccc1 (stereo not drawn)
    -1% | 10% | 2% | 4% | -5% | 1%
19: Cc1ccc(OCc2nc3ccccc3n2CC(C)C)cc1
    -11% | -3% | -20% | u | -6% | 1%
20: Cc1coc2c1c(C)cc1oc(=O)c(CC(=O)NCc3ccc(Cl)cc3)c(C)c12
    -3% | -18% | 0% | 1% | -4% | -1%
21: COC(=O)c1ccccc1NC(=O)CCc1c(C)nc2cc(-c3ccc(Cl)cc3)nn2c1C
    0% | -9% | -6% | 10% | 0% | 1%
22: CC(=O)c1cccc(NC(=O)CCCSc2nc(-c3ccco3)cc(C(F)(F)F)n2)c1
    13% | u | u | 0% | -4% | 0%
23: COc1ccc(-n2ccnc(NCc3cccs3)c2=O)cc1
    -2% | -2% | -2% | -4% | 1% | 0%
24: O=C1Nc2c(c(=O)[nH]c(=O)n2-c2ccccc2)C1(NS(=O)(=O)c1ccc(Cl)cc1)C(F)(F)F (stereo not drawn)
    -8% | -20% | -26% | 1% | 1% | 0%
25: CCOc1ccccc1NC(=O)c1sc2nc(-c3ccc(OC)cc3)ccc2c1N
    u | u | 0% | 1% | -7% | 1%
26: C=CCc1cccc2cc(-c3nc4ccc(C)cc4[nH]3)c(=O)oc12
    -13% | 15% | 0% | 0% | 0% | -3%
27: COc1ccccc1CNC(=O)C(CC(C)C)N1Cc2ccccc2C1=O (stereo not drawn)
    -8% | 4% | 5% | 3% | 0% | 0%
28: CCOC(=O)N1CCc2c(sc3c2c(=O)n(-c2ccc(CC)cc2)c(=O)n3C)C1
    -3% | -20% | -7% | 0% | 0% | 1%
29: CCC(Cn1nnc2ccccc2c1=O)NC(=O)Nc1ccc(C)c(C)c1 (stereo not drawn)
    -11% | -15% | -10% | 2% | -10% | -1%
30: COCCCN1C(=O)c2[nH]nc(-c3ccccc3O)c2C1c1ccc(OC)cc1 (stereo not drawn)
    19% | 10% | -14% | -9% | -6% | u

# Entries 16–30 from above:
# Values in the order: p53null 32C tox | p53null 39C kill | FH mod | GALK inh | PTAP-TSG101 blk | B2AR arrestin ag
16: CC1(C)CC=C(C#Cc2ccccc2)c2cc(/C=C/c3ccc(C(=O)O)cc3)ccc21
    x | x | -7% | x | x | x
17: CC1=C(C(=O)Nc2cc3cn[nH]c3cc2F)C(c2ccc(Cl)cc2F)N=C(c2ccnc(Cl)c2)N1 (stereo not drawn)
    x | x | -22% | x | x | x
18: CCOc1ccccc1C(=O)NC1(C(F)(F)F)C(=O)Nc2c1c(=O)[nH]c(=O)n2-c1ccccc1 (stereo not drawn)
    -1% | 10% | 2% | 4% | -5% | 1%
19: Cc1ccc(OCc2nc3ccccc3n2CC(C)C)cc1
    -11% | -3% | -20% | u | -6% | 1%
20: Cc1coc2c1c(C)cc1oc(=O)c(CC(=O)NCc3ccc(Cl)cc3)c(C)c12
    -3% | -18% | 0% | 1% | -4% | -1%
21: COC(=O)c1ccccc1NC(=O)CCc1c(C)nc2cc(-c3ccc(Cl)cc3)nn2c1C
    0% | -9% | -6% | 10% | 0% | 1%
22: CC(=O)c1cccc(NC(=O)CCCSc2nc(-c3ccco3)cc(C(F)(F)F)n2)c1
    13% | u | u | 0% | -4% | 0%
23: COc1ccc(-n2ccnc(NCc3cccs3)c2=O)cc1
    -2% | -2% | -2% | -4% | 1% | 0%
24: O=C1Nc2c(c(=O)[nH]c(=O)n2-c2ccccc2)C1(NS(=O)(=O)c1ccc(Cl)cc1)C(F)(F)F (stereo not drawn)
    -8% | -20% | -26% | 1% | 1% | 0%
25: CCOc1ccccc1NC(=O)c1sc2nc(-c3ccc(OC)cc3)ccc2c1N
    u | u | 0% | 1% | -7% | 1%
26: C=CCc1cccc2cc(-c3nc4ccc(C)cc4[nH]3)c(=O)oc12
    -13% | 15% | 0% | 0% | 0% | -3%
27: COc1ccccc1CNC(=O)C(CC(C)C)N1Cc2ccccc2C1=O (stereo not drawn)
    -8% | 4% | 5% | 3% | 0% | 0%
28: CCOC(=O)N1CCc2c(sc3c2c(=O)n(-c2ccc(CC)cc2)c(=O)n3C)C1
    -3% | -20% | -7% | 0% | 0% | 1%
29: CCC(Cn1nnc2ccccc2c1=O)NC(=O)Nc1ccc(C)c(C)c1 (stereo not drawn)
    -11% | -15% | -10% | 2% | -10% | -1%
30: COCCCN1C(=O)c2[nH]nc(-c3ccccc3O)c2C1c1ccc(OC)cc1 (stereo not drawn)
    19% | 10% | -14% | -9% | -6% | u

# Further results
# Values in the order: p53null 32C tox | p53null 39C kill | FH mod | GALK inh | PTAP-TSG101 blk | B2AR arrestin ag
31: COc1ccc(N2C(=O)CS(=O)(=O)C23C(=O)N(Cc2cccc(F)c2)c2ccccc23)cc1OC (stereo not drawn)
    15% | -5% | -15% | 3% | -3% | 0%
32: CN(Cc1cccs1)c1ncnc2ccc(-c3ccc4c(c3)OCO4)cc12
    x | x | -23% | x | x | x
33: COc1cc(OC)c(N(C)C(=O)Nc2cn(CC(C)C)c(=O)c3ccccc23)cc1Cl
    4% | -8% | 12% | 2% | -7% | 0%
34: CCc1c(-c2ccccc2)nc2ccccc2c1C(=O)NC(C)c1ccccc1 (stereo not drawn)
    0% | 13% | -6% | 0% | -3% | 0%
35: COc1ccc(C(=O)n2nc(-c3ccco3)nc2NCc2cccs2)cc1
    -10% | -7% | u | 3% | 2% | 0%
36: COc1cc(Cl)c(NC(=O)CCS(=O)(=O)c2ccc3c(c2)NC(=O)CO3)c(OC)c1
    1% | 6% | -2% | 1% | -1% | -1%
37: CCCCN(C(=O)Nc1ccc(Cl)cc1)C1CCN(C(C)=O)CC1
    10% | 25% | -11% | -1% | 1% | -1%
38: Cc1cccc(CNC(=O)c2cnc3c(-c4cccc(C)c4)c(C)nn3c2C)c1
    -6% | 6% | -12% | 0% | -2% | 0%
39: Cc1c(CNC2CCC(C)CC2)c(C(=O)O)c(C)n1Cc1ccccc1F (stereo not drawn)
    0% | -5% | 20% | -14% | -3% | -2%
40: Cc1ccc(NC(=O)CN2C(=O)c3ccccc3Sc3ccc(C(=O)N4CCOCC4)cc32)cc1F
    22% | 20% | -7% | -1% | -5% | -1%
41: Cc1nc2nc[nH]n2c(=O)c1CCC(=O)Nc1ccc(F)cc1
    -1% | -14% | -11% | 8% | 2% | 1%
42: Cc1ccccc1C(=O)n1nc(-c2ccco2)nc1NCc1ccc(Cl)cc1
    -10% | -22% | -25% | 9% | -9% | -1%
43: O=C(Nc1ccc2c(c1)CCCN2C(=O)c1cccs1)c1cccc(C(F)(F)F)c1
    3% | -6% | -20% | 0% | -2% | -1%
44: COc1ccc(CCNc2nc(-c3ccc(C)cc3)cc(C(F)F)n2)cc1OC
    -3% | -9% | 1% | -3% | 1% | 1%

# The list is partial, so the mix of outcomes need not match the whole.
